Source: PubChem BioAssay (National Center for Advancing Translational Sciences (NCATS))
GLA inh pH 4.5 = alpha-galactosidase A (human) inhibition, pH 4.5. P06280. purified enzyme, 4-MU-alpha-Gal fluorescence, pH 4.5. activity change, negative = inhibition, % at 105 µM. 230,000 tested, under 10 active; inconclusive = small, poorly fitted or top-dose-only inhibition, or a rising curve; inactive = flat fitted curve, though single readings scatter; no compound was filed as active;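 note: 0% = full activity with enzyme and -100% = basal without enzyme; dose as in the result columns while the protocol names 77 µM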
miR-21 FLuc = raises the signal of a miR-21 reporter | HeLa miR-21 FLuc reporter, luciferase, 48 h | Potency, µM (top dose mostly 38.3 µM), inactives show at the top dose reporter change, positive = more light | AID 2288 | 340,000 tested, under 10 active; active = well fitted rising curve with a large enough effect; inconclusive = small, poorly fitted or top-dose-only effect; inactive = no such curve, though single readings can be large or run the other way;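 note: % of control where 0% means no effect; miR-21 action dims this reporter so a rising signal means less miR-21 action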
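Using DMEM plus 10% FBS, HeLa miR-21-FLuc cells are incubated with test compounds (final up to about 40uM) for 48 hours; firefly luciferase signal is then imaged following reagent-mediated lysis.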
Rango dissoc inh = inhibitors of RanGTP-induced Rango-importin beta complex dissociation | Potency, µM (titrated, usually from 46.1 µM), for inactives: at the top dose activity change, negative = inhibition | AID 540253 | Biochemical FRET Rango-importin beta, RanGTP-induced dissociation | 340,000 tested, 0.071% active | O95149+P62826; active means falling FRET ratio curve, often poorly fitted, with flat reads before Ran was added; inconclusive means other falling curves, or compound fluorescence or quenching; inactive means flat or rising ratio curve;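 note: potency is the fitted concentration of half-maximal effect; % of control where 0% means no effect; nearly all actives have a fitted effect of over 45% in size; -100% = wells without RanGTP and RCC1; the record marks most hits as doubtful in a second field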
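Recombinant Rango FRET biosensor (EYFP–snurportin 1 IBB–cerulean CFP10) at 0.1 uM premixed with 0.25 uM importin beta in PBS, 1 mM DTT, 0.02% Tween-20, 0.1% BSA. Compound added 5 min; RanGTP-RCC1 (0.6 uM Ran, 2 mM GTP, 0.2 uM RCC1) then triggers release, read at 45 min.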
Rango complex inh = inhibitors of Rango-importin beta complex formation; Rango CFP/YFP FRET sensor + importin beta, 45 min; 340,000 tested, 0.031% active; Q14974; Potency, µM (series often up to 92.2 µM), inactives show at the highest dose inhibition of complex formation; active = rising FRET ratio curve, often small or poorly fitted; inconclusive = mostly compound fluorescence or quenching in the first reads; inactive = flat curves in all reads;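 note: potency is the fitted concentration of half-maximal effect; 0% = DMSO wells and 100% = buffer wells lacking importin beta; nearly all actives have a fitted effect of over 15% in size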
Target sequence (Q14974 whole entry, looked up): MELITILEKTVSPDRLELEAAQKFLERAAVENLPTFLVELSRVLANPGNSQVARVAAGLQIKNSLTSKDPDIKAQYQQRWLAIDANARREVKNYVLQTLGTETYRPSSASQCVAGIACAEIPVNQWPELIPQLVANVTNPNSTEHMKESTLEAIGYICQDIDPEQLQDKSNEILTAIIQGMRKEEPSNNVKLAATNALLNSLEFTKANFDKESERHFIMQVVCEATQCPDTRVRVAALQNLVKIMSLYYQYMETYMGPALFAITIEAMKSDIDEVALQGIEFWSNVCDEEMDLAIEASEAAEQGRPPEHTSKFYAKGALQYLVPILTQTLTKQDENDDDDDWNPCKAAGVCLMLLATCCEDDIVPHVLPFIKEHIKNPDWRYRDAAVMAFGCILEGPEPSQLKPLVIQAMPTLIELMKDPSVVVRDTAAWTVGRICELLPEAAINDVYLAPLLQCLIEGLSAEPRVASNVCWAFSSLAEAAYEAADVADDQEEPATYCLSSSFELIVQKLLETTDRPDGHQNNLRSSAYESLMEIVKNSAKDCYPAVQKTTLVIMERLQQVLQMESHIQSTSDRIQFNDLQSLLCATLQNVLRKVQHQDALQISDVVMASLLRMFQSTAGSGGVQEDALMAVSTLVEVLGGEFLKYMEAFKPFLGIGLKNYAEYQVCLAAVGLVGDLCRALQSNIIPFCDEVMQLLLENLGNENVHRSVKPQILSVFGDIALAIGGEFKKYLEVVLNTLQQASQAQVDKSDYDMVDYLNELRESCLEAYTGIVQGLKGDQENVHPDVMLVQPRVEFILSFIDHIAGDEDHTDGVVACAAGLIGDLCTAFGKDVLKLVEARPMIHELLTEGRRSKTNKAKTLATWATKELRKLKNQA
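FRET biosensor (snurportin 1 IBB flanked by EYFP and cerulean), 50 nM, with compound 5 min, then 0.125 microM importin beta in PBS, 1 mM DTT, 0.02% Tween-20, 0.1% BSA. CFP/YFP ratio read after 45 min at room temperature; pre-read flags interference.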
Numbers without * were called inactive; [ ] = remark or other dose.

`CCOC(=O)c1ccccc1NC(=O)Cc1c(C(=O)O)n(C)c2ccccc12` gave miR-21 FLuc -14%, Rango dissoc inh 12% and Rango complex inh 3.0%.
Screening CCOc1cc(C)c(Cl)cc1S(=O)(=O)N(C)C returned GLA inh pH 4.5 -1, miR-21 FLuc -11%, Rango dissoc inh -6% and Rango complex inh 4.6%.
Cc1ccc(C)c(OCCC(=O)Nc2cccc(S(=O)(=O)N3CCCCC3)c2)c1 was read as Rango dissoc inh -3% and Rango complex inh inconclusive.
CCOP(=O)(OCC)c1nc(-c2ccc(F)cc2)oc1NCc1ccccc1 was read as GLA inh pH 4.5 4, miR-21 FLuc -4%, Rango dissoc inh 0% and Rango complex inh -2.6%.
For CC(C)(C)c1cc(C(=O)CCN2CCOCC2)cc(C(C)(C)C)c1O the results were miR-21 FLuc 10%, Rango dissoc inh 10% and Rango complex inh -0.3%.
CN(CCO)C1=NS(=O)(=O)c2cc([N+](=O)[O-])ccc21 was read as GLA inh pH 4.5 1, miR-21 FLuc 20%, Rango dissoc inh -4% and Rango complex inh -1.3%.
For CC(C)(C)C1(c2ccccc2)NC(=O)N(CC(=O)N2CCOCC2)C1=O (centres undefined) the results were GLA inh pH 4.5 17, miR-21 FLuc -7%, Rango dissoc inh -15% and Rango complex inh -0.3%.
For CCn1c(=O)c2sccc2n(CC(=O)NCCC2=CCCCC2)c1=O the results were miR-21 FLuc 7%, Rango dissoc inh 10% and Rango complex inh 0.9%.
Cn1c(CCCOc2ccc(Cl)cc2Cl)nnc1SCC(=O)Nc1ccc(F)c(Cl)c1 was read as GLA inh pH 4.5 -14, miR-21 FLuc -12%, Rango dissoc inh -13% and Rango complex inh -1.0%.
Cc1ccccc1Cn1c(=N)n(CC(O)c2ccco2)c2ccccc21 (centres undefined) was read as GLA inh pH 4.5 -5, miR-21 FLuc 11%, Rango dissoc inh -19% and Rango complex inh inconclusive.
`C#CCN(N(C)c1ncc(C(F)(F)F)cc1Cl)S(=O)(=O)c1ccc2ccccc2c1` gave GLA inh pH 4.5 0, miR-21 FLuc 0%, Rango dissoc inh -5% and Rango complex inh -0.2%.
Screening COCCNS(=O)(=O)c1ccccc1 returned GLA inh pH 4.5 -1, miR-21 FLuc -6%, Rango dissoc inh -9% and Rango complex inh -0.9%.
`O=S(=O)(NCCCSc1ccccc1)c1ccccc1F` gave miR-21 FLuc -4%, Rango dissoc inh 16% and Rango complex inh 3.3%.
`COc1ccccc1N(CC(=O)NC1CC2CCC1C2)S(=O)(=O)c1ccc(C)cc1` (centres undefined) gave miR-21 FLuc 12%, Rango dissoc inh -1% and Rango complex inh -5.3%.
Cc1nnc(NC(=O)CSc2nnc3ncccn23)s1 was read as miR-21 FLuc 7%, Rango dissoc inh -2% and Rango complex inh 3.9%.
Screening COCCNC(=S)N1CCC(c2nc(-c3ccc(F)cc3)no2)CC1 returned GLA inh pH 4.5 5, miR-21 FLuc 2%, Rango dissoc inh -1% and Rango complex inh 2.2%.
`COc1cc(NC(=O)CCNS(=O)(=O)c2ccc3c(c2)CCC(=O)N3)cc(OC)c1` gave GLA inh pH 4.5 -21, miR-21 FLuc 2%, Rango dissoc inh 0% and Rango complex inh -2.8%.
For O=C(NCc1cccs1)c1nc2c(nnn2Cc2ccccc2Cl)c(=O)[nH]1 the results were GLA inh pH 4.5 1, miR-21 FLuc inconclusive, Rango dissoc inh 8% and Rango complex inh -2.2%.
Cc1ccc(S(=O)(=O)NC(C(=O)Oc2cc3oc(=O)cc(C)c3cc2Cl)C(C)C)cc1 (centres undefined) was read as GLA inh pH 4.5 inconclusive, miR-21 FLuc -3%, Rango dissoc inh inconclusive and Rango complex inh inconclusive.
Screening Cc1cc(N2CCN(C(=O)c3ccco3)CC2)n2nc(C)c(-c3ccccc3)c2n1 returned GLA inh pH 4.5 -6, miR-21 FLuc 3%, Rango dissoc inh -8% and Rango complex inh 0.3%.
`CN(Cc1ccccc1)S(=O)(=O)c1ccc(NS(=O)(=O)Cc2ccccc2)cc1` gave GLA inh pH 4.5 -11, miR-21 FLuc 10%, Rango dissoc inh -5% and Rango complex inh 5.4%.
`CN(C(=O)COC(=O)c1cc(=O)[nH]c2ccccc12)C1CCCCC1` gave Rango dissoc inh -9% and Rango complex inh 0.3%.
`C=CCOc1ccc(C2C(C(=O)c3ccco3)=C(O)C(=O)N2Cc2cccnc2)cc1` (centres undefined) gave GLA inh pH 4.5 -10, miR-21 FLuc -1%, Rango dissoc inh -1% and Rango complex inh -0.5%.
[N-]=[N+]=NCC/C=C\C1NS(=O)(=O)OCC1O (centres undefined) was read as miR-21 FLuc -1%, Rango dissoc inh 12% and Rango complex inh -0.2%.
CCCN(CC(=O)Nc1ccccc1C)C(=O)COC(=O)c1cnc(C)cn1 was read as Rango dissoc inh inconclusive and Rango complex inh -0.5%.
CCCCCOc1ccc(C2NC(=O)NC2=O)cc1 (centres undefined) was read as GLA inh pH 4.5 4, miR-21 FLuc -19%, Rango dissoc inh -8% and Rango complex inh -1.1%.
`COc1cccc(C(=O)O[C@H]2[C@H](C)NS(=O)(=O)[C@H]3C[C@@H]4C=C[C@]23O4)c1` gave Rango dissoc inh 10% and Rango complex inh 4.1%.
For CC(C(=O)Nc1cccc([N+](=O)[O-])c1)n1nnc2ccccc21 (centres undefined) the results were GLA inh pH 4.5 -16, miR-21 FLuc -4%, Rango dissoc inh 3% and Rango complex inh 1.1%.
For COCCn1c(SCC(=O)N2CCN(c3ccccc3)CC2)nc2c(c1=O)SC(C)C2 (centres undefined) the results were GLA inh pH 4.5 2, miR-21 FLuc 1%, Rango dissoc inh 10% and Rango complex inh 0.3%.
Screening CCCn1c(O)c2ccc(C(=O)N=NC(=O)c3cccnc3)cc2c1O returned GLA inh pH 4.5 -3, miR-21 FLuc -2%, Rango dissoc inh -6% and Rango complex inh -3.6%.
Screening CC(C)(C)c1cccc(OCCCSc2ncccn2)c1 returned GLA inh pH 4.5 -9, miR-21 FLuc -32%, Rango dissoc inh -8% and Rango complex inh 0.1%.
For NS(=O)(=O)c1ccc(NC(CNS(=O)(=O)c2ccccc2)c2ccccc2)cc1 (centres undefined) the results were GLA inh pH 4.5 -6[21.1 µM], miR-21 FLuc 5%, Rango dissoc inh -22% and Rango complex inh 0.6%.
Screening COc1ccc(/C=C/C(=O)c2oc3ccc(F)cc3c2C)cc1 returned GLA inh pH 4.5 -12, miR-21 FLuc -3%, Rango dissoc inh 2% and Rango complex inh 0.0%.
O=C(CCCOc1ccc(Cl)cc1Cl)NNC(=O)C1CCC1 was read as GLA inh pH 4.5 -1, miR-21 FLuc -1%, Rango dissoc inh -3% and Rango complex inh 1.4%.
Cc1ccc2nc(C(=O)O)c(C(=O)O)nc2c1 was read as GLA inh pH 4.5 3, miR-21 FLuc -4%, Rango dissoc inh 9% and Rango complex inh -0.3%.
Screening COc1cc2nc(-c3ccccc3)nc(N3CCCC3)c2cc1OC returned GLA inh pH 4.5 4 and miR-21 FLuc -2%.
Screening Cc1cccc(C(=O)NNC(=O)C(=O)NC(C)(C)C)c1 returned GLA inh pH 4.5 inconclusive, miR-21 FLuc -12%, Rango dissoc inh 2% and Rango complex inh 3.1%.
Screening O=C(Nc1ccc(Cl)c(Cl)c1)Nc1cc(C(=O)NC2CC2)ccc1Cl returned GLA inh pH 4.5 3 and miR-21 FLuc -3%.
O=C(O)c1c2c(nc3ccc(F)cc13)CCC2 was read as GLA inh pH 4.5 1, miR-21 FLuc -2%, Rango dissoc inh -14% and Rango complex inh 0.4%.
For O=C(Nc1cccnc1)NC1CCCCC1 the results were GLA inh pH 4.5 -9, miR-21 FLuc -12%, Rango dissoc inh -13% and Rango complex inh 0.9%.
`O=C(O)c1ccc2c(c1)C(=O)N(C(Cc1ccc(O)cc1)C(=O)O)C2=O` (centres undefined) gave GLA inh pH 4.5 2, miR-21 FLuc 0%, Rango dissoc inh -2% and Rango complex inh 2.4%.
c1ccc(-n2c(SCC3CCCCO3)nnc2-c2cnccn2)cc1 (centres undefined) was read as GLA inh pH 4.5 0, miR-21 FLuc -8%, Rango dissoc inh -1% and Rango complex inh -4.2%.
Screening O=C(NC1CCCN(Cc2ccc(Cl)cc2)C1)c1ccnc(Cl)c1 (centres undefined) returned miR-21 FLuc 22%, Rango dissoc inh 4% and Rango complex inh -3.6%.
For CCCc1nc(SCC(=O)NNC(=O)c2ccc(OC)cc2)c2ccccc2n1 the results were GLA inh pH 4.5 2, miR-21 FLuc 0%, Rango dissoc inh -17% and Rango complex inh -3.1%.
`CCOc1ccccc1NC(=O)CN(C)S(=O)(=O)c1ccc(OC)c(C)c1` gave GLA inh pH 4.5 -9, miR-21 FLuc -3%, Rango dissoc inh 14% and Rango complex inh -0.4%.

Random excerpt: four compounds from above.
c1ccc(-n2c(SCC3CCCCO3)nnc2-c2cnccn2)cc1 (centres undefined) was read as GLA inh pH 4.5 0, miR-21 FLuc -8%, Rango dissoc inh -1% and Rango complex inh -4.2%.
Screening O=C(Nc1ccc(Cl)c(Cl)c1)Nc1cc(C(=O)NC2CC2)ccc1Cl returned GLA inh pH 4.5 3 and miR-21 FLuc -3%.
`CCOc1ccccc1NC(=O)CN(C)S(=O)(=O)c1ccc(OC)c(C)c1` gave GLA inh pH 4.5 -9, miR-21 FLuc -3%, Rango dissoc inh 14% and Rango complex inh -0.4%.
For O=C(Nc1cccnc1)NC1CCCCC1 the results were GLA inh pH 4.5 -9, miR-21 FLuc -12%, Rango dissoc inh -13% and Rango complex inh 0.9%.

3 compounds from above, arranged by formula weight, lowest first.
Cc1ccc2nc(C(=O)O)c(C(=O)O)nc2c1 was read as GLA inh pH 4.5 3, miR-21 FLuc -4%, Rango dissoc inh 9% and Rango complex inh -0.3%.
O=C(CCCOc1ccc(Cl)cc1Cl)NNC(=O)C1CCC1 was read as GLA inh pH 4.5 -1, miR-21 FLuc -1%, Rango dissoc inh -3% and Rango complex inh 1.4%.
For CCCc1nc(SCC(=O)NNC(=O)c2ccc(OC)cc2)c2ccccc2n1 the results were GLA inh pH 4.5 2, miR-21 FLuc 0%, Rango dissoc inh -17% and Rango complex inh -3.1%.

The listing continues.
For Cc1cccc(C)c1NC(=S)N(c1ccccc1)C(C)C the results were GLA inh pH 4.5 12, miR-21 FLuc 0%, Rango dissoc inh 14% and Rango complex inh 0.1%.
`Cc1ccc(S(=O)(=O)CC(c2ccccc2)N2CCCCC2)cc1` (centres undefined) gave GLA inh pH 4.5 -3, miR-21 FLuc 4%, Rango dissoc inh 5% and Rango complex inh 0.8%.
`Nc1nc(CCl)nc(Nc2ccc3ccccc3c2)n1` gave GLA inh pH 4.5 0, miR-21 FLuc 30%, Rango dissoc inh -1% and Rango complex inh 0.4%.
`Cc1cc(C)nc(/N=C(\N)C2=C(O)CC(C)(C)CC2=O)n1` gave GLA inh pH 4.5 2, miR-21 FLuc -45%, Rango dissoc inh 0% and Rango complex inh 5.7%.
Screening CC(C)Cn1c(N)c(C(=O)COC(=O)c2cc3ccccc3cc2O)c(=O)n(C)c1=O returned Rango dissoc inh 10% and Rango complex inh -2.2%.
For CC1(C)CC(=O)C=C(NCc2ccc(Cl)c(Cl)c2)C1 the results were GLA inh pH 4.5 0, miR-21 FLuc 4%, Rango dissoc inh 3% and Rango complex inh -7.8%.
For CCc1cc2cc3c(cc2nc1SCC(=O)OC(C)C)OCO3 the results were GLA inh pH 4.5 14, miR-21 FLuc 0%, Rango dissoc inh 3% and Rango complex inh 1.1%.
For COc1ccc(Nc2nnc(-c3ccncc3)s2)cc1Cl the results were miR-21 FLuc -21%, Rango dissoc inh 0% and Rango complex inh -1.3%.
CCOc1ccc2oc(-c3ccccc3)c(C(N)=O)c2c1 was read as miR-21 FLuc -28%, Rango dissoc inh -1% and Rango complex inh -2.0%.
`Nc1nc(Nc2cccc(F)c2)nc2ccccc12` gave GLA inh pH 4.5 -2, miR-21 FLuc -45%, Rango dissoc inh -6% and Rango complex inh -0.1%.

Not all compounds are listed. The share of hits here may be higher or lower than overall.
